CapD inh = CapD enzyme inhibition | AID 492967 | purified CapD enzyme, fluorescence intensity read-out; stronger effect = lower value; some hits fall short of the stated cut | actives 0.23% (n = 140,000) | z-score (concentration not given with the values);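 active means z-score under -4 in either of two replicates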;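 further: stock transfer was 100 nL into about 40 µL; score is relative to mean and spread of the plate; one replicate is shown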
AID504770 = E. coli YBA685 growth inhibition, screen for V. cholerae RctB inhibitors; E. coli YBA685 rctB-dependent plasmid, OD600 growth, 3 h; stronger effect = lower value; z-score (no concentration beside the values); actives 0.27% (n = 130,000); AID 504770;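 active means z-score under -2 on both plates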;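 further: wells of about 30 µL received 100 nL stock; score is relative to mean and SD of the test wells; the first replicate is given; strong numbers were not always called active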
* marks the source's active call; other numbers are inactive results; nt = not tested or not shown. Hits appear at their usual frequency; about 0.37% have a hit in one of these screens.

cpd | Structure | AID504770 | CapD inh
1 | CCN1CCN(c2c(C(=O)c3ccc(C)c(C)c3)cnc3ccc(C)cc23)CC1 | 2 | -0.48
2 | O=C(Nc1cccnc1)C1=NOC(CNc2ncc(C(F)(F)F)cc2Cl)C1 (centres undefined) | nt | -0.33
3 | CNCCC(Oc1ccccc1OC)c1ccccc1 (centres undefined) | nt | 0.31
4 | COc1cccc(N2C(=O)c3ccc(C(=O)Nc4c[nH]c(=O)[nH]c4=O)cc3C2=O)c1 | -0.2 | 0.29
5 | CC(=O)N[C@@H]1[C@@H](C(O)[C@H](O)CO)O[C@](O)(C(=O)O)C[C@@H]1O (some centres undefined) | nt | -0.6
6 | CN1C2CCC1CC(NCc1ccccc1)C2 (centres undefined) | -1.1 | -0.16
7 | c1ccc([C@H]2N=C(CC3=N[C@H](c4ccccc4)[C@H](c4ccccc4)O3)O[C@H]2c2ccccc2)cc1 | nt | 0.17
8 | COc1cc(SC)ccc1C(=O)Nc1ccccc1C(N)=O | 1.7 | 16
9 | CN(CCC#N)c1ncnc2sccc12 | -0.15 | nt
10 | Cc1nnc(NC(=O)CSc2nnc(CNC(=O)C34CC5CC(CC(C5)C3)C4)n2-c2ccccc2)s1 | 1.3 | nt
11 | O=C(O)Cn1nnc(-c2ccccc2)n1 | -0.7 | -0.29
12 | CC(=O)N1CCc2ccc(NS(=O)(=O)c3ccc4oc(=O)ccc4c3)cc21 | nt | -0.52
13 | O=C(c1ccc(Cl)cc1)N1CCN(C(c2ccccc2)c2ccccc2)CC1 | -0.9 | -0.32
14 | O=C(Nc1ccccc1)C(Cc1nnc(-c2ccc(F)cc2)o1)C(=O)c1ccccc1 (centres undefined) | -0.8 | nt
15 | O=C(Nc1ccon1)c1cc2ccccc2oc1=O | 0 | 4.3
16 | CN(C(=O)Nc1cnccc1C(F)(F)F)C1CCCCC1 | -0.05 | 2.1
17 | Cc1nc(-c2ccccc2O)n(-c2ccccc2)n1 | -0.9 | -0.08
18 | O=C(CN1C(=O)C2(OCCO2)c2cc([N+](=O)[O-])ccc21)c1cccc2ccccc12 | nt | -0.54
19 | O=[N+]([O-])/C(=C\Nc1ccc(Cl)c(Cl)c1)S(=O)(=O)c1ccccc1 | nt | -0.64
20 | O=C(CSc1nnc(-c2ccco2)c(-c2ccco2)n1)Nc1ccc(C(=O)O)cc1 | 0.7 | -11*
21 | C=CCn1c(C23CC4CC(CC(C4)C2)C3)n[nH]c1=S | -0.5 | 0.34
22 | CCOC(=O)c1ccccc1Oc1c(F)c(F)nc(NCCO)c1F | 1.2 | -0.94
23 | CC1(NC(=O)N2CCOCC2)CCS(=O)(=O)C1 (centres undefined) | 0.15 | 0.4
24 | Cc1ccccc1N1C(=O)CSC1=C(C#N)C#N | 0.05 | -0.21
25 | CCN(CC)S(=O)(=O)c1ccc(-c2cn3ccc(C)cc3n2)cc1 | nt | 35
26 | CCOC(=O)c1cnc2c(c(C)nn2C)c1Oc1ccc(F)cc1 | nt | 0.38
27 | O=C(NCc1cccc(Cl)c1)c1c(O)c2cccc3c2n(c1=O)CCC3 | nt | 1.1
28 | Cc1ccc(SC(=O)c2ccc(OC(F)(F)F)cc2)cc1 | -0.35 | 10
29 | O=C1CC(n2c(=O)oc3ccccc32)C2COC1O2 (centres undefined) | -1.9 | 0.13
30 | Cc1cc(OCc2nc(-c3ccc(Br)cc3)no2)ccc1Cl | nt | -0.08

cpd | Structure | AID504770 | CapD inh
31 | CCOc1ccc(C(=O)Nc2c3c(nn2-c2cccc(Cl)c2)CS(=O)C3)cc1 (centres undefined) | 0.55 | -0.56
32 | CCOC(=O)c1c(C)c(C(=O)N2CCCC2)c(C)n1CC | 0.15 | nt
33 | CCOC(=O)c1c(P(=O)(N2CCOCC2)N2CCOCC2)noc1N | 0.7 | nt
34 | O=C(c1ccco1)N(Cc1ccco1)C1CCS(=O)(=O)C1 (centres undefined) | -0.95 | -0.15
35 | O=C1c2cc(Br)ccc2-c2ccc(Br)cc21 | nt | 0.11
36 | O=C(NCCN1CCOCC1)C1CCC(CNS(=O)(=O)c2ccc(Cl)cc2)CC1 (centres undefined) | -0.7 | 0.47
37 | O=C(OCC(=O)N1CCN(c2ccccc2)CC1)c1ccc(-n2cnnn2)cc1 | -0.25 | nt
38 | COC(=O)c1c(C)[nH]c(C)c1-c1ccn[nH]1 | -0.1 | 1.1
39 | COCC(=O)Nc1cc(C)cn(Cc2c(F)cccc2Cl)c1=O | 0.15 | nt
40 | O=C(CSCCc1ccccn1)Nc1ccc(Br)cc1F | -0.6 | -0.09
41 | Cn1cnnc1SCN1C(=O)c2ccccc2C1=O | 1.4 | 0.15
42 | CN=C1SC(C(=O)Nc2ccccc2)CC(=O)N1C (centres undefined) | 1.7 | nt
43 | Cc1nc(-c2noc(-c3ccc(Cl)cc3)n2)c(C(F)(F)F)o1 | 0.2 | 0.15
44 | COCCN1Cc2cccc(C(=O)N3CCN(c4ccc(F)cc4)CC3)c2C1=O | 0.8 | -1.1
45 | NC1(c2cccc(Cl)c2)CCC1 | 0.6 | 1.1
46 | CCOc1ccc(CCNS(=O)(=O)c2cnc[nH]2)cc1OCC | 0.6 | 2.5
47 | O=C1C2=C(Nc3[nH]c(=O)[nH]c(=O)c3C2c2ccccc2)c2ccccc21 (centres undefined) | 1.9 | 0.025
48 | COc1cc(CNC(=O)c2ccccc2SC)cc(OC)c1OC | -0.5 | -0.05
49 | COc1ccccc1C(CCNS(=O)(=O)c1ccc(C)cc1)c1ccco1 (centres undefined) | -0.3 | 0.35
50 | CC1CCCCC1NC(=O)c1cn(-c2ccccc2)nc1-c1cccs1 (centres undefined) | 0.2 | nt
51 | COc1ccccc1NC(=O)NCCC(=O)N1CCCC1 | -0.25 | nt
52 | Cc1ccc(-c2cc(-c3c(C)nn(C)c(=O)c3N)[nH]n2)cc1 | -0.2 | -0.31
53 | Cc1ccc(CNC(=O)C2CCN(C(=O)c3ccc(-n4ccc5ccccc54)s3)CC2)o1 | 0.55 | 16
54 | Nc1cc(Cl)ccc1C(=O)OCC(=O)NCC1CCCCC1 | 1.9 | 15
55 | CC(C)Cn1c(SCC(=O)c2ccc(S(=O)(=O)N3CCOCC3)cc2)nc2ccccc21 | 1.6 | nt
56 | COc1ccc(C)cc1NC(=O)CSc1nnc(C(F)(F)F)n1C | 0.2 | 0.51
57 | CCC(=O)NC(Nc1sc2c(c1C#N)CCCC2)(C(F)(F)F)C(F)(F)F | -0.2 | 0.39
58 | CCOC(=O)C1CCN(C(=O)CSc2ccc(NC(C)=O)cc2)CC1 | 2.1 | nt
59 | COc1ccc(C2C3=C(NCCN=C3c3ccccc3)C(=O)N2c2ccccc2)c(OC)c1 (centres undefined) | nt | -0.48
60 | CSc1nnc(NCc2cccc(Cl)c2)s1 | -0.45 | 0.41

Six records picked at random from those above:
cpd | Structure | AID504770 | CapD inh
40 | O=C(CSCCc1ccccn1)Nc1ccc(Br)cc1F | -0.6 | -0.09
60 | CSc1nnc(NCc2cccc(Cl)c2)s1 | -0.45 | 0.41
51 | COc1ccccc1NC(=O)NCCC(=O)N1CCCC1 | -0.25 | nt
38 | COC(=O)c1c(C)[nH]c(C)c1-c1ccn[nH]1 | -0.1 | 1.1
48 | COc1cc(CNC(=O)c2ccccc2SC)cc(OC)c1OC | -0.5 | -0.05
56 | COc1ccc(C)cc1NC(=O)CSc1nnc(C(F)(F)F)n1C | 0.2 | 0.51

(continued)
cpd | Structure | AID504770 | CapD inh
61 | CC(=O)N1CCC(N(CCCN2CCC(C)CC2)C(=O)NC23CC4CC(CC(C4)C2)C3)CC1 | -1.5 | -0.19
62 | COC(=O)C1Cc2c([nH]c3ccccc23)C(C)N1 (centres undefined) | 0.15 | -0.4
63 | Cc1cc(C(=O)N2CCCCC2)c2cc(F)ccc2n1 | 1.5 | 0.19
64 | COc1ccc(F)cc1S(=O)(=O)Nc1cccc(-c2ccc(N3CCCCC3)nn2)c1 | -0.05 | 0.22
65 | O=C(NCc1csc(-c2cccs2)n1)c1ccsc1 | 0.9 | 42
66 | Cc1ccccc1N1C(=O)c2ccccc2C(CC(=O)N(C)C)(CC(=O)N(C)C)C1=O | -0.15 | nt
67 | Cc1ccc(-c2nc3ccccc3nc2-c2ccc(C)cc2)cc1 | nt | 2.1
68 | CCSc1cc(C)nc(NC(=O)CC)n1 | -0.75 | 0.32
69 | O=C(CSCc1cc2cccc3c2n(c1=O)CCC3)NCc1ccncc1 | nt | 12
70 | O=S1(=O)c2ccccc2-c2cc(Br)ccc21 | 0.25 | nt
71 | O=C(NC(=O)c1cc2sccc2nc1C(F)(F)F)Nc1ncccn1 | nt | -0.49
72 | O=C(O)CCc1ccc(-c2cccs2)n1-c1ccc(C(=O)O)cc1 | -0.5 | -0.16
73 | CN(C)S(=O)(=O)c1ccc(Nc2nc3ccccc3n3cnnc23)cc1 | -1.1 | 7.7
74 | c1ccc(C2Sc3ccccc3N=C3c4ccccc4SCC32)cc1 (centres undefined) | 0.6 | -1.1
75 | N#Cc1c(Cl)nc(Cl)c(Cl)c1Cl | -3.5* | nt
76 | CCOC(=O)C1=C(C(=O)OCC)SC2(S1)C(C(=O)OCC)=C(C(=O)OCC)SC1=C2c2cc(C)ccc2NC1(C)C | nt | -0.42
77 | CCC(C)C(=O)N1c2ccc(C)cc2C(=C2SC(C(=O)OC)=C(C(=O)OC)S2)C(=S)C1(C)C (centres undefined) | nt | 0.005
78 | CC(C(=O)O)N1Cc2ccccc2C1=O (centres undefined) | 0.65 | -0.57
79 | O=C(CNC1=NCCC1)c1ccccc1 | -0.8 | 0.075
80 | CNC(=O)c1ccsc1NC(=O)c1cc2ccccc2cc1OC | 0.1 | 1.5
81 | Cc1oc2cc(Br)c(OC(=O)c3ccco3)cc2c1C(=O)OC(C)C | -0.7 | 59
82 | CCOC(=O)CC(=O)CSc1nc(-c2cccnc2)cc(C)c1C#N | nt | 0.32
83 | O=C1c2ccccc2CN1C(CO)Cc1ccccc1 (centres undefined) | 0.3 | 0.39
84 | CCOC(=O)N1CCN(S(=O)(=O)c2ccc(C(=O)Nc3ccccc3-c3nc4ccccc4s3)cc2)CC1 | nt | 0.3
85 | O=C1c2cc3ccccc3cc2C(=O)C1c1ccccc1 | -0.7 | 1
86 | CCCC(=O)N(c1ccc(OCC)cc1)S(=O)(=O)c1ccc2c(c1)n(C)c(=O)n2C | 2.7 | -1.1
87 | Cc1ccc(C)c(N2CCN(CCCNC(=O)C3CCCN(c4ncnc5c4nc4n5CCCCC4)C3)CC2)c1 (centres undefined) | -0.3 | 0.42
88 | Cc1c(C#N)c(NC(=O)c2cccs2)n(CC2CC2)c1C | 2.9 | -0.74
89 | C#CCNc1ccccc1 | -0.65 | nt
90 | Cc1cc(-n2c(C)cc(/C=C/C(=O)N3CCN(S(=O)(=O)Cc4ccccc4)CC3)c2C)no1 | 0.2 | nt

3 entries from above, ordered by molar mass, ascending.
cpd | Structure | AID504770 | CapD inh
75 | N#Cc1c(Cl)nc(Cl)c(Cl)c1Cl | -3.5* | nt
70 | O=S1(=O)c2ccccc2-c2cc(Br)ccc21 | 0.25 | nt
65 | O=C(NCc1csc(-c2cccs2)n1)c1ccsc1 | 0.9 | 42

More entries
cpd | Structure | AID504770 | CapD inh
91 | CCNC(=O)COc1ccc(-c2nnco2)cc1 | 0 | nt
92 | CCC1(C)CC(CCN(Cc2ccccc2)C(C)=O)(c2ccc(OC)cc2)CCO1 (centres undefined) | nt | -0.7
93 | Cc1cc(C(=O)CN2CCN(Cc3ccc4c(c3)OCO4)CC2)c(C)n1-c1ncn[nH]1 | -0.2 | nt
94 | COC(=O)c1ccc(NC(=O)C2CC(=O)N(C)C(=Nc3cc(Cl)ccc3Cl)S2)cc1 (centres undefined) | nt | 0.42
95 | COc1cc2[nH]c(=O)c(C(=O)NCCN3CCCC3)c(O)c2cc1OC | -0.9 | nt
96 | CCOC(=O)c1c(-c2ccccc2)oc2c1cc(OC(=O)c1ccccc1Br)c1ccccc12 | nt | -0.24
97 | Cc1nc(Cc2nc3ccccc3n2Cc2ccccc2F)no1 | -1.8 | nt
98 | CCn1c(=O)cc(SCC(=O)NC2CCCCC2)c2ccccc21 | -1.4 | 1.7
99 | Nc1nonc1-c1noc(-c2cc(Br)ccc2OCc2ccccc2Cl)n1 | nt | -0.51
100 | CC(=O)C(C)(C)OC(=O)NCCc1ccccn1 | nt | 0.34
101 | Cn1c(C(=O)NCCN2CCOCC2)cc2cc(S(C)(=O)=O)ccc21 | nt | -0.03
102 | CCSc1nnc(SC/C(O)=C(\C(=O)OC)c2nc3ccccc3[nH]2)s1 | -0.55 | nt
103 | CCOc1ccccc1NC(=O)Cn1cc(S(=O)(=O)N2CCC(C)CC2)c2ccccc2c1=O | 0.75 | -2.2
104 | CCCN(CCC)CC(O)CN(c1ccc(C)cc1)S(=O)(=O)c1ccccc1 (centres undefined) | nt | -0.15
105 | C[N+](C)(Cc1ccccc1)Cc1ccccc1 | -0.45 | 0.22
106 | c1ccc(CN2CCCC(c3nc4ccccc4[nH]3)C2)cc1 (centres undefined) | -0.2 | nt
107 | CCOC(=O)CSc1nnc(-c2ccccc2)n1-c1ccccc1 | -0.5 | 0.55
108 | COc1ccc(C(=O)Nc2ccc3c(c2)C(=O)N(CCC(=O)O)C3=O)cc1 | 0.8 | -0.79
109 | COc1ccnc(N2CCN(c3cccc(C(F)(F)F)c3)CC2)c1C#N | nt | 0.78
110 | COc1cc2nc(SCc3ccc(C)cc3)n3nc(-c4ccccc4)nc3c2cc1OC | -1 | -0.23
111 | CC(C)(C)c1cc(C#N)c(OCc2ccc(C(F)(F)F)cc2)c(C#N)c1 | nt | 85
112 | CCCS(=O)(=O)Nc1cc(S(=O)(=O)CC)ccc1O | 0.7 | nt
113 | O=C(NCc1nc(-c2ccccc2F)no1)c1ccc2c(c1)OCO2 | -0.05 | -0.34
114 | O=C1Cc2ccccc2C(=O)N1CCc1ccccc1 | -0.7 | 0.03
115 | N#Cc1c(Cl)cccc1Oc1ccc(S(=O)(=O)N2CCN(Cc3ccc(Cl)cc3)CC2)cc1 | nt | 0.28

High-throughput results deposited in PubChem BioAssay by ICCB-Longwood Screening Facility, Harvard Medical School.
